supercomplex z: modulators of mitochondrial supercomplex assembly, cell-based, luminescence, Hoechst nuclei count (AID 1645838); z-score at 11 µM unless noted; Cells, luminescence/Hoechst cell count ratio, supercomplex reporter; hits give high values; actives 5% (n = 2,000);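 active = mean z-score of two plates above 1.96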;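 also: control cybrid cells; higher means more mitochondrial supercomplex formation; U2OS-based cells read after two days; 0 = mean of sample wells on the plate; doses worked out from stocks diluted about 900-fold with the highest of each compound shown; many of its hits are not listed in these tables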
supercomplex z cell count: second read-out of supercomplex z, no call of its own (marks repeat the call); cell count; measured here: cell number, Hoechst nuclei count;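 nuclei per well as mean of two plates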
* = called active by the depositor; i = inactive; nt = not tested or not shown.

Value order – supercomplex z | supercomplex z cell count
[1] NC(N)=NCCCC(N)C(=O)NC(CCCN=C(N)N)C(=O)N1CCCC1C(=O)N1CC(O)CC1C(=O)NCC(=O)NC(Cc1cccs1)C(=O)NC(CO)C(=O)N1Cc2ccccc2CC1C(=O)N1C(C(=O)NC(CCCN=C(N)N)C(=O)O)C[C@H]2CCCC[C@H]21 (some centres not stated)
 : -0.98 | 6182
[2] O=C(O)CCn1nnc2ccccc21
 : -0.31 | 7488
[3] NC(=O)c1noc(C(CCCC2CCCCC2)CC(=O)NO)n1 (configuration not stated)
 : 2.4* | 2556*
[4] COc1ccc(C(=O)O)cc1
 : -0.37 | 5841
[5] O=c1cc(N2CCOCC2)oc2c1ccc1ccccc12
 : -0.12 | 6380
[6] Cc1cc(NC(=O)Nc2ccc(N(C)C)cc2)c2cc(F)cc(F)c2n1
 : -0.12 | 5056
[7] CCC1C=C(C)CC(C)CC(OC)C2O[C@@](O)(C(=O)C(=O)N3CCCCC3C(=O)OC(C(C)=CC3CCC(O)C(OC)C3)C(C)C(O)CC1=O)C(C)CC2OC (some centres not stated)
 : -1.8 | 2855
[8] O=C(O)CSc1cc(NS(=O)(=O)c2ccc(Br)cc2)c2ccccc2c1O
 : 0.29 | 1622
[9] COc1ccc(-c2ccccc2)cc1NS(=O)(=O)c1cc(Cl)cc(Cl)c1O
 : -0.84 | 6777
[10] NCCc1cnc[nH]1
 : -0.23 | 5998
[11] CCC(=O)NCCC1CCc2ccc3c(c21)CCO3 (configuration not stated)
 : -0.87 | 5416
[12] Nc1cccc2c1C(=O)N(C1CCC(=O)NC1=O)C2=O (configuration not stated)
 : -0.51 | 5168
[13] Cn1cc(-c2ccc(F)c(C(F)(F)F)c2)nc1C1CCN(c2ncnc3[nH]ncc23)CC1
 : 0.41 | 5208
[14] CC(=O)c1ccc2c(c1)C1C=CCC1C(c1cc3c(cc1Br)OCO3)N2 (configuration not stated)
 : i | nt
[15] CN1c2ccc([N+](=O)[O-])cc2N=C(c2ccc(C(=O)O)cc2)c2cc3c(cc21)C(C)(C)CCC3(C)C
 : -0.26 | 4266
[16] NC(=Nc1ccc(CCNCc2cccc(Cl)c2)cc1)c1cccs1
 : -0.25 | 5328
[17] CCCOc1ccc(C=C2SC(=O)NC2=O)cc1
 : -0.48 | 4636
[18] CCCc1nc(C(C)(C)O)c(C(=O)OCc2oc(=O)oc2C)n1Cc1ccc(-c2ccccc2-c2nn[nH]n2)cc1
 : -0.29 | 6068
[19] CC(C=CC1=C(C)CCCC1(C)C)=CC=CC(C)=CC(=O)O
 : 0.047 | 4874
[20] NC(=O)C(Cc1ccccc1)NC(=O)C(CCCN=C(N)N)NC(=O)C12CC3CC(CC(C3)C1)C2 (configuration not stated)
 : 0.4 | 4520
[21] CC(C)Cn1cnc2c(N)nc3ccccc3c21
 : -0.27 | 5942
[22] CN1CCCC1Cc1c[nH]c2ccc(CCS(=O)(=O)c3ccccc3)cc12 (configuration not stated)
 : 0.075 | 4330
[23] CC(C)CC(C(=O)NC(Cc1ccc(OCc2ccccc2)cc1)C(=O)NC(C)(C)C)N(C)Cc1ccc(C(C)(C)C)cc1 (configuration not stated)
 : -0.58 | 3968
[24] Nc1nc(OC(c2ccc(-c3cccc(F)c3)cc2)C(F)(F)F)cc(-c2ccc(CC(N)C(=O)O)cc2)n1 (configuration not stated)
 : -0.33 | 4884
[25] O=C1c2ccccc2-c2n[nH]c3cccc1c23
 : 1 | 3474
[26] C=CCc1cccc(C=NNC(=O)CN2CCN(Cc3ccccc3)CC2)c1O
 : i | nt
[27] Nc1ccc(S(N)(=O)=O)cc1
 : 0.22 | 3974
[28] COc1cc(Nc2ncc(F)c(Nc3ccc4c(n3)NC(=O)C(C)(C)O4)n2)cc(OC)c1OC
 : 2.1* | 1994*
[29] CCCN(CCC)S(=O)(=O)c1ccc(C(=O)O)cc1
 : -0.053 | 5638
[30] CCOc1ccc(Cc2cc(C3OC(CO)C(O)C(O)C3O)ccc2Cl)cc1 (configuration not stated)
 : 1.1 | 5987

Whole records, looked up by structure. Screens in order: supercomplex z | supercomplex z cell count
`CC(C=CC1=C(C)CCCC1(C)C)=CC=CC(C)=CC(=O)O` reads 0.047 | 4874
`NCCc1cnc[nH]1` reads -0.23 | 5998
`O=C1c2ccccc2-c2n[nH]c3cccc1c23` reads 1 | 3474
`CN1c2ccc([N+](=O)[O-])cc2N=C(c2ccc(C(=O)O)cc2)c2cc3c(cc21)C(C)(C)CCC3(C)C` reads -0.26 | 4266
`CCC(=O)NCCC1CCc2ccc3c(c21)CCO3` (configuration not stated) reads -0.87 | 5416

Random excerpt: 4 records from the list
Value order – supercomplex z | supercomplex z cell count
[5] O=c1cc(N2CCOCC2)oc2c1ccc1ccccc12
 : -0.12 | 6380
[25] O=C1c2ccccc2-c2n[nH]c3cccc1c23
 : 1 | 3474
[12] Nc1cccc2c1C(=O)N(C1CCC(=O)NC1=O)C2=O (configuration not stated)
 : -0.51 | 5168
[24] Nc1nc(OC(c2ccc(-c3cccc(F)c3)cc2)C(F)(F)F)cc(-c2ccc(CC(N)C(=O)O)cc2)n1 (configuration not stated)
 : -0.33 | 4884

Later entries.
Value order – supercomplex z | supercomplex z cell count
[31] COc1ccccc1Oc1c(NS(=O)(=O)c2ccc(C(C)(C)C)cc2)nc(-c2ncccn2)nc1OCCO
 : -0.21 | 5774
[32] C=CCC1C=C(C)CC(C)CC(OC)[C@@H]2O[C@@](O)(C(=O)C(=O)N3CCCC[C@@H]3C(=O)OC(C(C)=CC3CCC(O)C(OC)C3)C(C)C(O)CC1=O)C(C)CC2OC (some centres not stated)
 : -0.86 | 4918
[33] COc1cc(Cc2cnc(N)nc2N)c2c(c1OC)OC(C1CC1)C=C2 (configuration not stated)
 : -0.34 | 4956
[34] CC(=O)NC(Cc1ccc(O)cc1)C(=O)NC(C(=O)NC(C)C(=O)NC(C=O)CC(=O)O)C(C)C (configuration not stated)
 : -0.18 | 7090
[35] COc1ccccc1-c1nnc(NC(=O)C(C)SC2=NCCS2)s1 (configuration not stated)
 : 0.056 | 4903
[36] CC(CN(C)C)Oc1nc(Nc2cc3cccc(Cl)c3cn2)cnc1C#N (configuration not stated)
 : i | nt
[37] COCCNCCCn1c(C(=O)CF)c(-c2ccc(C)cc2)c2c(N)ncnc21
 : 0.7 | 3985
[38] O=S(=O)(Nc1ccc(C(O)(C(F)(F)F)C(F)(F)F)cc1)c1cccs1
 : -0.18 | 7161

A few values from above:
In supercomplex z, COCCNCCCn1c(C(=O)CF)c(-c2ccc(C)cc2)c2c(N)ncnc21 is entered as 0.7
In supercomplex z, C=CCC1C=C(C)CC(C)CC(OC)[C@@H]2O[C@@](O)(C(=O)C(=O)N3CCCC[C@@H]3C(=O)OC(C(C)=CC3CCC(O)C(OC)C3)C(C)C(O)CC1=O)C(C)CC2OC (some centres not stated) is entered as -0.86
In supercomplex z cell count, COc1cc(Cc2cnc(N)nc2N)c2c(c1OC)OC(C1CC1)C=C2 (configuration not stated) is entered as 4956
In supercomplex z cell count, COc1ccccc1Oc1c(NS(=O)(=O)c2ccc(C(C)(C)C)cc2)nc(-c2ncccn2)nc1OCCO is entered as 5774
In supercomplex z cell count, COc1ccccc1-c1nnc(NC(=O)C(C)SC2=NCCS2)s1 (configuration not stated) is entered as 4903

Screening results (PubChem)

The list is partial; the hit share may differ from the screen's.
